Source: PubChem (National Center for Advancing Translational Sciences (NCATS))
2A StopGo: High Throughput Screening for Foot and Mouth Disease Virus Antivirals; human cells with a luciferase reporter of 2A StopGo recoding; control for the full effect not named in the record; Potency, µM (highest dose often 57.9 µM), for inactives: at the highest dose signal change, negative = less light; hit rate 1.2% among 410,000; active = well fitted falling curve with a large enough effect; inconclusive = small, poorly fitted or top-dose-only effect; inactive = no such curve, though single readings can be large or run the other way; tested in HEK293T cells; also: % is scaled to controls: 0 for no effect and ±100 for the full control effect; nearly all actives have a fitted effect of over 45% in size; luciferase light after 4 h
NS1 inh: qHTS Assay for Inhibitors of Influenza NS1 Protein Function; hit rate 0.4% among 270,000; S. cerevisiae slowed by influenza A NS1, growth recovery by OD600; Potency, µM (highest dose often 46.1 µM), without a hit: at the highest dose activity, positive = more growth; active means well fitted rising curve with a large enough effect; inconclusive means small, poorly fitted or top-dose-only effect; inactive means no such curve, though single readings can be large or run the other way; also: nearly all actives have a fitted effect of over 50% in size
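Compounds were scored for reversing the slow growth caused by influenza A NS1 in S. cerevisiae, measured by optical density at 600 nm. Assay medium contained 2% galactose at pH 6.0; NS1-free yeast of the same strain were the positive control.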
Cruzain noTriton: qHTS Assay for Promiscuous and Specific Inhibitors of Cruzain (without detergent); Cruzipain (Trypanosoma cruzi), P25779; Potency, µM, for inactives: max response, negative = inhibition, hits mostly inhibitors; hit rate 2.3% among 200,000; purified cruzain, Z-FR-AMC fluorescence, no detergent;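 also: plate controls were enzyme without inhibitor for no effect and buffer without enzyme for full effect; nearly all actives have a fitted effect of over 40% in size; top concentration of the series not given in the record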
Target sequence (P25779 123-467 limits assumed): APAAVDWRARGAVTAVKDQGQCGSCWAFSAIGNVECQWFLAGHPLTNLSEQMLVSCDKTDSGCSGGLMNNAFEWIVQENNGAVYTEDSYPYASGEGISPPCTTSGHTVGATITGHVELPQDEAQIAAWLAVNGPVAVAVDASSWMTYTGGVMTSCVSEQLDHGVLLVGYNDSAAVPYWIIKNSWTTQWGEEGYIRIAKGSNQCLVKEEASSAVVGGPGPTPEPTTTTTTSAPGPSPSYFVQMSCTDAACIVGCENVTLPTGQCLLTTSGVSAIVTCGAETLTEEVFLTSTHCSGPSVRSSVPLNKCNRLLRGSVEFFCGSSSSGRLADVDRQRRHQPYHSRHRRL
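Purified cruzain at 1.5 nM, pre-incubated 15 min with compound at room temperature in 100 mM sodium acetate pH 5.5, 5 mM DTT, 0.00005% Triton X-100. Reaction started with 2 uM Z-FR-AMC; AMC fluorescence increase over 60 s gives rate.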
Cruzain Triton: qHTS Assay for Promiscuous and Specific Inhibitors of Cruzain (with detergent); Cruzipain (Trypanosoma cruzi), P25779; purified cruzain, Z-FR-AMC fluorescence, 0.01% Triton; Potency, µM, for the others: max response, negative = inhibition, most hits filed as inhibitors; hit rate 0.43% among 200,000;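 also: plate controls were neutral wells for no effect and buffer without enzyme for full effect; nearly all actives have a fitted effect of over 40% in size; top concentration of the series not given in the record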
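In this qHTS format, compounds are incubated with 1.5 nM cruzain for 15 min at room temperature before 2 uM Z-FR-AMC is added. Release of AMC is followed at 360/450 nm, and progress is taken as the 60 s fluorescence difference.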
RE007 growth inh: qHTS Assay for Inhibitors of the HIV-1 protein Vpr; hit rate 0.21% among 360,000; S. pombe RE007 Vpr strain, BacTiter-Glo ATP luminescence, 24 h; control for the full effect not named in the record; Potency, µM (titrated, usually from 92.2 µM), for inactives: at the top dose activity change, negative = less growth; active = well fitted falling curve with a large enough effect; inconclusive = small, poorly fitted or top-dose-only effect; inactive = no such curve, though single readings can be large or run the other way;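 also: % is scaled to controls: 0 for no effect and ±100 for the full control effect; nearly all actives have a fitted effect of over 50% in size; the assay follows cell death caused by Vpr and the record does not say whether a fall means rescue or toxicity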
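Fission yeast strain RE007, carrying one chromosomally integrated HIV-1 vpr copy, was seeded at OD 0.01 in PMG+AL medium with 23 nL pinned compound. After 24 h at 30 °C and 99% humidity, viability was read by BacTiter-Glo luminescence.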
Lassa entry inh: qHTS for Inhibitors of binding or entry into cells for Lassa Virus | Lassa virus pseudotype entry inhibition, cell reporter; control for the full effect not named in the record | Potency, µM (top dose mostly 37.9 µM), inactives show at the highest dose activity change, negative = inhibition, usual class: inhibitors | hit rate 1.2% among 300,000; active means well fitted inhibition curve with a large enough effect; inconclusive means small, poorly fitted or top-dose-only effect, or effect the other way; inactive means flat fitted curve, though single readings scatter; tested in HEK293 cells; also: % is scaled to controls: 0 for no effect and ±100 for the full control effect; nearly all actives have a fitted effect of over 50% in size; luciferase read-out
SARS PLP yeast: qHTS of Yeast-based Assay for SARS-CoV PLP. hit rate 0.19% among 330,000. S. cerevisiae expressing SARS-CoV PLpro, growth rescue; control for the full effect not named in the record. AID 485353, 2010. Potency, µM (highest dose often 32.9 µM), without a hit: top-dose activity, positive = growth rescue; active means well fitted rising curve with a large enough effect; inconclusive means small, poorly fitted or top-dose-only effect; inactive means no such curve, though single readings can be large or run the other way; also: 0% is about no effect; nearly all actives have a fitted effect of over 55% in size; growth read by luminescence after 48 h
MARV entry inh: qHTS for inhibitors of binding or entry into cells for Marburg Virus. AID 540276, 2011. Marburg virus pseudotyped entry inhibition, cell reporter; control for the full effect not named in the record; about a third of the inactives were read at about 46 µM. hit rate 1.8% among 300,000. Potency, µM (doses to about 37.8 µM), for the others: at the highest dose activity change, negative = inhibition, hits mostly inhibitors; active = well fitted inhibition curve with a large enough effect; inconclusive = small, poorly fitted or top-dose-only effect, or effect the other way; inactive = flat fitted curve, though single readings scatter; tested in HEK293 cells; about a fifth of its hits are not listed in these tables; also: % is scaled to controls: 0 for no effect and ±100 for the full control effect; luciferase read-out
Active calls of the source: *; ? = inconclusive; . = not tested or not shown; & = joins results of further samples; [ ] = dose if it differs, or a comment. Unless noted, calls follow the shape of the dose curve; as a rule, active = well fitted curve in the direction sought with a large enough effect; inconclusive = small, poorly fitted or top-dose-only effect, or another doubt; inactive = no such curve, though single readings can be large; an effect the other way counts as inactive or inconclusive. Potency is read from the fitted curve at half-maximal effect.

SMILES	2A StopGo	NS1 inh	Cruzain noTriton	Cruzain Triton	RE007 growth inh	Lassa entry inh	SARS PLP yeast	MARV entry inh
CCc1ccc2[nH]cc(S(=O)(=O)c3ccc(C(C)C)cc3)c(=O)c2c1	5.7%	.	3.1%	-2.2%	.	2.0%[46.1 µM]	.	4.1%[46.1 µM]
CC(C)c1ccc(O)c(NC(=S)NC(=O)c2cccnc2)c1	22.2%	-7.7%	.	.	?	-13.3%	1.1%	-4.3%[46.1 µM]
CCCCNS(=O)(=O)c1ccc(NC(=O)Cc2ccc(OC)cc2)cc1	-1.9%	.	.	.	19.6%	-17.2%[46.1 µM]	-1.5%	?
Cc1cc2c(cc3c(SCc4cccc(Cl)c4)nnc(C)n32)o1	20.8%	.	?	-4.6%	.	-10.6%[46.1 µM]	.	.
Cc1nnc(SC(C(=O)c2ccccc2)c2ccccc2)[nH]c1=O (stereo unspecified)	-13.9%	-10.9%	.	.	-0.7%	-4.7%	2.1%	-25.8%[46.1 µM]
O=C(Nc1ccc(Oc2ccccc2)cc1)C1CCN(S(=O)(=O)c2ccc(Cl)cc2)CC1	-0.9%	.	-1.2%	-3.1%	.	-2.6%[46.1 µM]	.	-0.1%[46.1 µM]
CSc1ccc(S(=O)(=O)N2CCC(C(=O)Nc3ccccc3C(F)(F)F)CC2)cc1	6.6%	-1.1%	.	.	0.9%	-3.6%[46.1 µM]	-7.1%	-9.6%[46.1 µM]
CCOc1ccc(-n2c(SCC(=O)Nc3nccs3)nnc2-c2ccoc2C)cc1	6.7%	?	.	.	13.8%	-7.2%	-0.1%	-14.4%[46.1 µM]
O=c1[nH]n(-c2ccc(Cl)cc2)c(=O)c(Cl)c1Cl	-17.6%	-10.9%	-2.5%	-4.4%	-14.8%	27.1%	1.6%	5.3%
O=C(CN1CCOCC1)Nc1scc2c1c(=O)oc1ccccc12	7.9%	5.8%	.	.	4.2%	?	-0.3%	-5.2%[46.1 µM]
O=C(Cc1ccc(Br)cc1)N1CCOCC1	8.7%	-3.1%	.	.	-9.3%	?	-1.5%	17.5%
Cc1cc(=O)n(Cc2c(F)cccc2Cl)c2c1c(C)nn2-c1cccc(F)c1	-19.3%	.	-4.9%	-1.0%	.	13.7%[46.1 µM]	.	.
CN(C)c1ccc(/C=N/Nc2cc(N3CCOCC3)nc(N3CCOCC3)n2)cc1	-11.1%	.	.	.	4.0%	?	0.2%	?
CC1CC(C)CN(C(=O)CSc2nc3ccsc3c(=O)n2Cc2ccccn2)C1 (stereo unspecified)	41.5%[activator]	18.0%	3.6%	-0.1%	5.0%	15.9%	5.2%	?
O=C(COc1ccc(Cl)cc1)NNC(=O)C(=O)N1CCCCC1	15.7%	-4.7%	1.6%	5.0%	3.9%	-0.3%	2.7%	16.8%
CC1(C)CCN(Cc2ccccc2)C1CC#N (stereo unspecified)	-9.2%	10.2%	8.9%	3.1%	15.9%	?	3.0%	12.8%
Cc1ccc(NC(=O)N2CCN(c3nnc(C)c4c(C)n(-c5ccccc5)nc34)CC2)cc1Cl	-19.0%	.	-4.9%	-1.4%	.	-28.7%[46.1 µM]	.	.
Nc1nc(N)c(Cc2ccc(Cl)cc2Cl)c(N)n1	?	.	.	.	-19.9%	-0.2%	3.2%	-26.2%
Cc1ccc2c(CN3CC(C)CC(C)C3)cc(=O)oc2c1C (stereo unspecified)	10.1%	1.0%	.	.	1.8%	5.4%	-3.6%	-35.0%
Cc1ccc(Nc2cccc(C(F)(F)F)c2)nn1	48.9%[activator]	.	.	.	-14.0%	26.5%	.	?
CC(NC(=O)c1cc2ccccc2oc1=O)c1ccc(O)cc1 (stereo unspecified)	-11.9%	0.3%	.	.	3.6%	-24.1%[46.1 µM]	2.4%	5.5%[46.1 µM]
CCOc1ccc(CCNC(=O)C(C)n2nc(C)n3c(cc4occc43)c2=O)cc1OCC (stereo unspecified)	-2.6%&0.0%	5.8%	10.3%&-5.5%	2.1%&-2.7%	-20.2%	-2.1%	-3.8%	-2.9%
Cc1ccnc(NC(=O)CCC(=O)N(CC(=O)NC2CCCCC2)Cc2cccs2)c1	?	.	.	.	0.1%	-2.1%	1.1%	-6.9%[46.1 µM]
COC(=O)c1[nH]c2ccc(F)cc2c1NC(=O)CCN1CCN(Cc2ccc3c(c2)OCO3)CC1	?	7.5%	8.3%	2.8%	-1.6%	-15.4%	-1.7%	-0.9%
COc1cc2c(cc1OC)CN(C(=O)/C=C/c1ccc(F)cc1)CC2	88.5%[activator]	3.5%	.	.	2.0%	?	-5.6%	1.6%[46.1 µM]
COc1ccccc1OCC(=O)O/N=C(\N)c1ccccn1	41.4%[activator]	1.4%	.	.	24.4%	.	-0.4%	.
CCOC(=O)C1=C(c2ccccc2)N=c2s/c(=C\c3cc(OC)c(OC)c(OC)c3)c(=O)n2C1c1cccs1 (stereo unspecified)	.	22.4µM*	3.3%	-0.9%	1.4%	?	13.2%	?
COC(=O)CNC(=O)CN1C(=O)N(c2ccccc2)C(N(O)C(=O)Nc2ccccc2)C1(C)C (stereo unspecified)	-2.1%	13.2%	-15.6%	0.6%	12.9%	10.1%	19.2%	?
CCN(CC(=O)Nc1c(F)cccc1F)C(=O)CCNC(=O)c1ccco1	-10.4%	.	.	.	-0.9%	-0.2%	0.2%	3.5%[46.1 µM]
NNC(=O)c1cccc(COc2ccc(Br)cc2)c1	-28.2%	26.6%	-2.8%	0.3%	0.7%	?	-30.1%	?
COc1ccc(C(=O)N2CCC(=O)N(C(CO)Cc3ccccc3)CC2)cc1 (stereo unspecified)	6.5%	22.6%	4.3%	-0.1%	-2.7%	?	20.9%	18.1%
CCCCN(C)C(=O)C1CCN(Cc2cccc(OCc3ccccc3)c2)CC1	?	10.5%	.	.	-14.7%	.	-6.3%	.
COc1ccc(-c2nc(-c3cccc([N+](=O)[O-])c3O)cc(=O)o2)cc1OC	0.8%	6.8%	-3.5%	-3.4%	8.4%	-0.9%	5.8%	-5.6%
CN(C)S(=O)(=O)c1ccc(C(=O)Nc2ccc(CN3CCCC3)cc2)cc1	-11.4%	?	5.3%	2.9%	-1.3%	15.1%	2.8%	8.2%
CCOC(=O)C(/C=C(\C#N)C(=O)OCC)=C(/N)N1CCN(c2ccc(OC)cc2)CC1	-10.1%	0.4%	?	-9.8%	-15.0%	13.4%	.	1.6%
CCOc1ccccc1NC(=O)COC(=O)C1CC1	-7.6%	.	.	.	2.0%	?	-1.8%	0.6%[46.1 µM]
C=CCn1c(SCC(=O)Nc2ccccc2C)nc2sc(C)c(C)c2c1=O	17.0%	-0.2%	-9.6%	-2.2%	-2.0%	18.5%	-5.9%	-28.1%
Oc1cccc(/C=N/N2CCN(c3ccccn3)CC2)c1	-0.4%	-6.3%	.	.	-14.4%	19.6%[46.1 µM]	0.4%	?
CN(C)S(=O)(=O)n1cc(/C=C(\NC(=O)c2ccccc2F)C(=O)N2CCCC2)c2ccccc21	-1.0%	-3.4%	.	.	-13.8%	.	0.6%	.
COC(=O)c1sc(NC(=O)c2ccc(Cn3cc(Cl)cn3)o2)c(C#N)c1C	?	-35.4%	?	-9.1%	-6.6%	-2.5%	-1.1%	?
O=C(c1ccc2c(c1)N(Cc1cccc(Cl)c1)C(=O)c1ccccc1S2(=O)=O)N1CCCCCC1	2.7%	.	7.2%	-3.4%	.	?	.	.
O=C(COC(=O)CCCN1C(=O)c2cccc3cccc(c23)C1=O)Nc1cccc(C(F)(F)F)c1	-12.1%	13.5%	-2.1%	-14.5%	7.8%	-16.0%	22.5%	-6.2%
CCc1cccc2c(C(=O)CSc3nnc(-c4ccncc4)n3C)c[nH]c12	3.0%	?	?	-1.1%	19.0%	0.3%	-1.0%	?
CC(C)Nc1ccccc1	-6.6%	.	-4.4%	-0.9%	2.6%	.	2.8%	.
CC1CCCCN1CCNC(=O)c1ccc(Cn2c(SCc3ccccc3)nc3cccnc32)cc1 (stereo unspecified)	22.7%	.	2.7%	-10.4%	.	.	.	?
O=C1CC2(CCCCC2)Oc2ccc(OCC(=O)N3CCOCC3)cc21	12.8%	0.7%	8.2%	-1.8%	7.1%	7.0%	-4.7%	14.5%
COc1ccc2c(c1)CCc1c(C(=O)NCc3ccc(Cl)cc3)noc1-2	11.6%	8.2%	4.5%	-10.8%	-6.3%	-22.2%	-2.6%	-0.3%[46.1 µM]
O=C(C[N+]12CCC(CC1)C(CO)C2)c1ccc(Br)cc1 (stereo unspecified)	-22.5%	-2.0%	.	.	-11.8%	3.3%[46.1 µM]	-0.7%	5.0%[46.1 µM]
COc1cc(CC(=O)Nc2nc(-c3ccc(F)c(F)c3)cs2)cc(OC)c1OC	20µM*	1.4%	.	.	-3.8%	?	0.3%	7.94µM*
CC1CN(S(=O)(=O)c2ccc(NC(=O)CCN3C(=O)c4ccccc4C3=O)cc2)CC(C)O1 (stereo unspecified)	-18.4%	-2.7%	4.4%	-2.3%	-7.3%	13.8%	-0.7%	16.1%

Later entries:
SMILES	2A StopGo	NS1 inh	Cruzain noTriton	Cruzain Triton	RE007 growth inh	Lassa entry inh	SARS PLP yeast	MARV entry inh
CCC(=O)Nc1nnc(-c2ccco2)o1	-6.9%	0.4%	1.9%	3.1%	-0.1%	.	4.2%	.
CCCSc1nc(C)c2cc(C)cc(C)c2n1	4.3%	-6.4%	14.3%	-1.4%	-6.1%	12.5%	-17.4%	?
O=C(CSc1nc2ccccc2c(=O)n1CCCN1CCOCC1)Nc1ccc2c(c1)OCO2	-10.6%	2.7%	.	.	-10.3%	-3.2%	0.4%	-1.9%[46.1 µM]
CC(=O)Nc1cc(C(=O)O)ccc1S(=O)(=O)c1ccc(C)cc1	15.9%	0.9%	2.6%	5.4%	13.1%	-2.6%	-4.3%	-3.0%
CCOc1ccc(S(=O)(=O)NCc2ccccc2Cl)cc1C(N)=O	10.7%	.	.	.	0.4%	4.9%	-1.9%	-0.2%&-0.2%[46.1 µM]
CC[n+]1c(C)n(-c2ccccc2)c2ccc(NC(C)=O)cc21	-7.7%	.	.	.	3.9%	?	2.6%	?
CC(C)(C)[C@@H]1CCC(=O)N(CC[C@H](N=[N+]=[N-])c2ccccc2)CC1	-10.0%	-90.9%	.	.	-4.7%	.	-2.1%	.
